Compound activity from PubChem.
Sa ugtP lethal = kills S. aureus RN4220 lacking UgtP. S. aureus RN4220 ugtP deletion, OD600 growth, 16 h; some inactives read as strong as hits. growth inhibition, % (concentration not given with the values). hit rate 0.54% among 330,000;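 active = z-score under -3 and OD600 up to 0.15 on both plates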;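 note: plate controls were untreated wells for no effect and antibiotic for full effect; wells of about 80 µL received 100 nL stock; the first replicate is given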
Mtb hypoxia inh = reduces hypoxia-regulated biosensor signal in M. tuberculosis. AID 1159583. hit rate 0.1% among 300,000. fluorescence inhibition, % (concentration not given with the values). M. tuberculosis hypoxia-regulated fluorescent reporter, fluorescence;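 active = 35 to 45% if threefold the growth effect, above 45% if 1.5-fold the growth effect; inactive = the rest, general growth blockers included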;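 note: wells of about 50 µL received 100 nL stock; 0% = vehicle wells and 100% = reference inhibitor wells; whole bacteria with a GFP reporter of the hypoxia response; strong numbers were not always called active; many hits fall short of the cut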
Bead autofluor = counter-screen for toxin protease inhibitors: compound fluorescence | compound autofluorescence counterscreen, microsphere flow cytometry; hits give high values | fluorescence intensity (test concentration not listed) | hit rate 3.1% among 360,000 | AID 624483;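 active = at least 3 SD above the mean of all compounds, about 16000 in these data; inconclusive = too few beads counted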;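 note: 100 nL of 1 mM stock went into each well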
PrP UTR inh = suppresses PrP 5' UTR mRNA reporter expression; cell-based PrP 5' UTR mRNA reporter, plate reader; inhibition, % (concentration not given with the values); hit rate 0.35% among 340,000; AID 488862;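 active = every replicate at 50% or more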;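 note: 0 = median of the neutral control wells; tested in H4 reporter cells; numbers are from one replicate; inactives centre near -14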
RN4220 kill = S. aureus RN4220 growth inhibition; OD600, 16 h; inhibition, % (concentration not given with the values); hit rate 0.33% among 330,000; AID 1259311;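 active = z-score of -3 or lower and OD600 up to 0.18 on both plates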;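 note: plate controls were untreated cells for no effect and reference antibiotic for full effect; stock transfer was 100 nL into about 80 µL; one replicate is shown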
BJeLR lethal = BJeLR cell viability loss; BJeLR (HRASV12) viability, CellTiter-Glo ATP luminescence, 48 h; reference of the scale not given here; inhibition, % (concentration not given with the values); hit rate 0.17% among 300,000; AID 1554;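 active = replicate mean above 50%; inconclusive = above 50% but judged a plate artefact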;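 note: 50 nL library stock added to about 25 µL; numbers are from one replicate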
Mtb hypoxia inh growth = recorded beside Mtb hypoxia inh, whose call it bears; growth inhibition, %; measured here: M. tuberculosis growth (absorbance);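 0% = vehicle and 100% = reference antibiotic; read after six days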
Numbers without * were called inactive; ? = inconclusive; · = no result given; & = joins results of further samples.

| compound | Sa ugtP lethal | Mtb hypoxia inh | Mtb hypoxia inh growth | Bead autofluor | PrP UTR inh | RN4220 kill | BJeLR lethal |
| --- | --- | --- | --- | --- | --- | --- | --- |
| COc1ccc(NC(C)=O)cc1NS(=O)(=O)c1cn(C)c(=O)n(C)c1=O | 4.7 | 13.2 | 8.0 | 5406 | -12.6 | -10.4 | -11.9 |
| Cc1ccc(C)c(NC(=S)NCc2cccs2)c1 | -2.9 | 0.5 | 7.8 | 2331 | -6.2 | 3.1 | -3.2 |
| CCOC(=O)CNc1ncnc2nc[nH]c12 | 5.8 | -2.0 | 5.2 | 5362 | -24.9 | 2.5 | 5.7 |
| Nc1ccccc1-c1nnc(SCc2ccccc2Cl)[nH]c1=O | -10.1 | 11.4 | 6.4 | 14526 | -25.2 | 7.4 | -1.7 |
| COc1cc(C(=O)NN=CC2CC=CCC2)cc(OC)c1OC (stereo not given) | 4.5 | -2.4 | 3.4 | · | · | 2.1 | · |
| CC(=O)NNC(=O)CCn1nnc2ccccc21 | -4.1 | 3.4 | -1.1 | 4138 | -33.1 | 1.7 | 4.7 |
| Cc1ccc(NC(=O)CSC2=C(C#N)C(c3ccc4c(c3)OCO4)C3=C(CCCC3=O)N2)c(C)c1 (stereo not given) | -2.2 | -4.5 | 14.5 | 10529 | -18.7 | 3.7 | -0.2 |
| COc1ccccc1CC(=O)N(CCC#N)CCC#N | 0.2 | 3.9 | 4.0 | 4091 | 5.8 | 1.6 | 3.3 |
| CC(=O)c1cc(F)c(N2CCN(C(=O)COc3ccccc3F)CC2)cc1C | -0.4 | 4.4 | 5.9 | 5453 | 0.6 | -1.4 | -1.8 |
| O=C(Nc1ccc2oc(-c3ccncc3)nc2c1)c1c(F)c(F)c(F)c(F)c1F | 7.1 | 1.9 | -4.7 | 4600 | -9.0 | 7.6 | · |
| CN(C(=O)c1cccc(NC(=O)Cc2cccc(NC(=O)C3CCCN(C(=O)C4CCCCC4)C3)c2)c1)C1CCC1 (stereo not given) | -3.3 | -4.3 | 3.8 | 3460 | -30.1 | 5.2 | · |
| CCc1nc2nc(C)c(NS(=O)(=O)c3ccc(CC(C)C)cc3)c(=O)n2[nH]1 | 4.0 | -0.2 | 6.1 | 2949 | -10.8 | 1.2 | -4.7 |
| CC(C)c1ccc(C2CC(=O)c3cnc(NC(=O)c4ccco4)nc3C2)cc1 (stereo not given) | 11.2 | 13.9 | 5.2 | 5265 | -27.4 | 3.5 | 14.8 |
| O=C(NCc1cccc(C(F)(F)F)c1)C1CCN(c2ncccn2)CC1 | 2.9 | 9.3 | 12.3 | 22251* | -22.9 | 3.9 | -12.3 |
| O=C(NC1CCCCC1)C1(c2ccccc2)CC1(Cl)Cl (stereo not given) | -3.5 | -3.9 | 5.5 | 2161 | -22.0 | 3.7 | 4.8 |
| CCOC(=O)C1CCN(C(=O)/C=C/c2ccccc2)CC1 | 2.0 | 18.1 | 6.5 | 2003 | -48.3 | 2.9 | -3.8 |
| Cc1ccc(S(=O)(=O)NCc2ccc(C(=O)N3CCN(c4ccccn4)CC3)cc2)cc1 | -5.6 | · | · | 4222 | -19.7 | 23.3 | -6.3 |
| C(=N\n1cnnc1)/c1ccc(OC2CSC2)cc1 | · | · | · | 9974 | -7.3 | · | 7.4 |
| Cc1cc(C)cc(N(C(=O)c2sc(C)nc2C)C(C(=O)NCc2ccco2)c2ccccc2)c1 (stereo not given) | -19.5 | -10.8 | 0.3 | 5658 | -12.8 | -0.6 | -7.2 |
| CC(C)Nc1nc(Cl)nc(NCCOc2ccccc2)n1 | 0.0 | -6.3 | 0.9 | 2148 | -30.4 | 1.9 | -2.9 |
| CC(C)=CCc1c(O)cc(O)c2c(=O)c3c(CC=C(C)C)c(O)ccc3oc12 | 100.5* | · | · | · | · | 100.4* | 6.3 |
| CCN1CCN(C(=O)c2ccc3c(c2)S(=O)(=O)c2ccccc2C3=O)CC1 | -10.5 | -1.3 | 12.9 | 3914 | 1.5 | 0.8 | 2.4 |
| CC(C)c1ccc(OCC(=O)N2CCc3ccccc3C2)cc1 | -7.5 | -6.4 | 10.9 | 3488 | -12.6 | 0.1 | -21.7 |
| CC(=NNC(=O)CNc1cccc(C(F)(F)F)c1)c1ccc(Br)cc1 | -21.3 | -2.4 | -3.3 | · | · | -2.2 | · |
| O=C1c2ccccc2C(=O)N1CCSc1nc2ccccc2c(=O)n1CCCN1CCOCC1 | 6.7 | 13.5 | 1.1 | 5668 | -21.4 | 9.1 | 1.1 |
| Cc1cccc(NC(=O)CNC(=O)CN2C(=O)NC3(CCc4ccccc43)C2=O)c1C (stereo not given) | 12.4 | 3.1 | -5.9 | ? | -27.1 | 5.3 | · |
| Cc1c(Cl)cccc1N1C(=O)C2ON(c3ccccc3)C(c3cccnc3)C2C1=O (stereo not given) | -6.8 | 5.4 | 6.7 | 21730* | -33.5 | 6.0 | 0.3 |
| CCC(=O)Oc1ccc(C2NC(=O)c3ccccc3O2)cc1OC (stereo not given) | 0.3 | 12.0 | 4.2 | · | -17.0 | 4.4 | -0.8 |
| CCc1ccc(N(CC(=O)NCC2CCCO2)C(=O)CCC(=O)Nc2nccs2)cc1 (stereo not given) | 5.9 | 1.2 | -2.8 | 2933 | -12.2 | 3.0 | -7.1 |
| CCn1c(CSc2nccn2C)nc2cc(C(=O)O)ccc21 | -3.8 | -4.7 | 6.6 | 3376 | -14.2 | 1.2 | 5.0 |
| COc1cccc(NC(=O)C(NCC2CCCCC2)c2ccccc2)c1 (stereo not given) | -18.1 | 5.5 | 3.6 | 2606 | -7.7 | -2.0 | 2.7 |
| O=C(NCc1ccccc1)c1cnc(Cl)c(Cl)c1 | 6.4 | · | · | 5720 | -20.5 | -1.8 | -1.0 |
| COc1ccc(OC)c(NC(=O)c2cnn(-c3ccccc3)c2C)c1 | -4.2 | -1.0 | -1.0 | 3469 | -28.6 | 4.4 | -0.6 |
| Cc1ccc(-c2cc(C(=O)N3CCN(c4ncccn4)CC3)c3ccccc3n2)cc1 | 5.8 | · | · | 3844 | -16.8 | 11.3 | 2.2 |
| N#Cc1ccccc1NC(=O)COC(=O)c1ccc2c(c1)OCCO2 | -3.3 | 1.9 | -3.4 | 3287 | -36.7 | -4.6 | 0.7 |
| C/C(=N\NC(=O)c1ccc2c(c1)OCO2)c1ccc2c(c1)OCO2 | · | · | · | 3902 | -44.7 | · | 11.1 |

13 structures out of the list, sorted by length of the SMILES, low to high.
| compound | Sa ugtP lethal | Mtb hypoxia inh | Mtb hypoxia inh growth | Bead autofluor | PrP UTR inh | RN4220 kill | BJeLR lethal |
| --- | --- | --- | --- | --- | --- | --- | --- |
| CC(=O)NNC(=O)CCn1nnc2ccccc21 | -4.1 | 3.4 | -1.1 | 4138 | -33.1 | 1.7 | 4.7 |
| COc1ccccc1CC(=O)N(CCC#N)CCC#N | 0.2 | 3.9 | 4.0 | 4091 | 5.8 | 1.6 | 3.3 |
| O=C(NCc1ccccc1)c1cnc(Cl)c(Cl)c1 | 6.4 | · | · | 5720 | -20.5 | -1.8 | -1.0 |
| COc1cc(C(=O)NN=CC2CC=CCC2)cc(OC)c1OC (stereo not given) | 4.5 | -2.4 | 3.4 | · | · | 2.1 | · |
| Nc1ccccc1-c1nnc(SCc2ccccc2Cl)[nH]c1=O | -10.1 | 11.4 | 6.4 | 14526 | -25.2 | 7.4 | -1.7 |
| COc1ccc(OC)c(NC(=O)c2cnn(-c3ccccc3)c2C)c1 | -4.2 | -1.0 | -1.0 | 3469 | -28.6 | 4.4 | -0.6 |
| O=C(NCc1cccc(C(F)(F)F)c1)C1CCN(c2ncccn2)CC1 | 2.9 | 9.3 | 12.3 | 22251* | -22.9 | 3.9 | -12.3 |
| CC(=O)c1cc(F)c(N2CCN(C(=O)COc3ccccc3F)CC2)cc1C | -0.4 | 4.4 | 5.9 | 5453 | 0.6 | -1.4 | -1.8 |
| CCN1CCN(C(=O)c2ccc3c(c2)S(=O)(=O)c2ccccc2C3=O)CC1 | -10.5 | -1.3 | 12.9 | 3914 | 1.5 | 0.8 | 2.4 |
| CCc1ccc(N(CC(=O)NCC2CCCO2)C(=O)CCC(=O)Nc2nccs2)cc1 (stereo not given) | 5.9 | 1.2 | -2.8 | 2933 | -12.2 | 3.0 | -7.1 |
| Cc1ccc(-c2cc(C(=O)N3CCN(c4ncccn4)CC3)c3ccccc3n2)cc1 | 5.8 | · | · | 3844 | -16.8 | 11.3 | 2.2 |
| Cc1ccc(S(=O)(=O)NCc2ccc(C(=O)N3CCN(c4ccccn4)CC3)cc2)cc1 | -5.6 | · | · | 4222 | -19.7 | 23.3 | -6.3 |
| Cc1ccc(NC(=O)CSC2=C(C#N)C(c3ccc4c(c3)OCO4)C3=C(CCCC3=O)N2)c(C)c1 (stereo not given) | -2.2 | -4.5 | 14.5 | 10529 | -18.7 | 3.7 | -0.2 |

(further entries)
Below each compound – Sa ugtP lethal | Mtb hypoxia inh | Mtb hypoxia inh growth | Bead autofluor | PrP UTR inh | RN4220 kill | BJeLR lethal
- O=C/C=C/c1ccccc1
 : -1.4 | · | · | 5981 | 0.3 | 0.7 | ·
- O=C(O)c1c2c(nc3ccc(S(=O)(=O)N4CCC(C(=O)NCc5ccc(Cl)cc5)CC4)cc13)CCCC2
 : 5.0 | -1.2 | -2.2 | 5030 | -7.0 | 3.0 | -1.4
- O=C(N/N=C/c1ccncc1)c1cnccn1
 : · | · | · | 4381 | -1.7 | · | -0.8
- COc1ccc(-c2nnc(-c3ccc(C)cc3)o2)cc1
 : 1.2 | 9.6 | 7.0 | 3950 | -42.5 | 10.8 | -10.1
- CCOC(=O)CC1=C(C(=O)OCC)C(c2ccc(OC)cc2OC)C(C#N)=C(N)O1 (stereo not given)
 : -5.0 | 15.0 | 15.0 | 3966 | -33.6 | -2.6 | -7.9
- C(=CC=Nc1ccccc1)C=CNc1ccccc1
 : -3.2 | -2.8 | 1.3 | · | · | 2.5 | ·
- CC1(C)CC(=O)C2=C(C1)OC(N)=C(C#N)C21CCN(Cc2ccccc2)CC1
 : -10.1 | 5.0 | 6.4 | 14003 | -34.0 | 1.1 | -17.5
- CCOc1ccc(/C=N/O)cc1
 : · | · | · | 4245 | -15.2 | · | 9.6
- O=C(CCS(=O)(=O)c1ccc(Cl)cc1)N1CCN(S(=O)(=O)c2cccs2)CC1
 : 4.7 | 4.8 | 6.7 | 4578 | -3.9 | 4.2 | 9.6
- CC1CCCN(CC(=O)N2c3ccccc3Sc3ccccc32)C1 (stereo not given)
 : 2.8 | -2.0 | 2.5 | 3282 | 0.4 | 1.0 | -3.3
- O=C(C1=CC(C2CC2)CC(OCc2ccc(CO)cc2)O1)N1CCN(Cc2ccc3c(c2)OCO3)CC1 (stereo not given)
 : 2.3&-1.7 | -5.0&6.4 | -3.2&2.7 | · | · | 6.8&7.0 | ·
- Cc1nnc(SCC(=O)O)s1
 : -3.6 | -5.5 | -2.6 | 4208 | -15.1 | -1.1 | -22.4
- CCN1CCN(C(c2cccs2)C(C)NC(=O)C(=O)N2CCCCC2)CC1 (stereo not given)
 : 17.2 | 9.4 | 5.2 | 4646 | -31.3 | 4.2 | 14.0
- CCN1CCN(CCCNC(=O)c2cc3c(=O)oc4ccc(C)cc4c3s2)CC1
 : 8.9 | -5.8 | -6.9 | 6584 | -10.0 | -0.3 | 11.3
- O=C(Cn1cc(C(F)(F)F)cc(Cl)c1=O)NCc1ccc(F)cc1
 : -3.7 | 11.1 | 2.0 | 3873 | -31.6 | 1.3 | 4.6
- C/C(=N\NC(N)=O)C1CC(CC(C)C)C(=O)O1 (stereo not given)
 : · | · | · | 2048 | -15.9 | · | 2.1
- COc1ccc(Nc2nc(-c3c[nH]c4ccccc34)cs2)cc1
 : -18.1 | -0.8 | 15.3 | 2332 | -45.6 | -10.2 | 2.9
- Cc1ccc(N2CC(C(=O)NCCN3CCOCC3)CC2=O)cc1 (stereo not given)
 : -2.1 | 16.8 | 7.1 | 6072 | -9.8 | 3.7 | -0.9
- CN(C)S(=O)(=O)c1cccc(NC(=O)c2ccccc2OCc2ccc(F)cc2)c1
 : 14.8 | -1.5 | -7.0 | 3121 | 13.5 | 1.5 | -0.5
- COc1cc(C2C(C#N)=C(N)Oc3n[nH]c(-c4cccnc4)c32)ccc1OCC(N)=O (stereo not given)
 : 5.3 | 15.3 | 2.5 | 4037 | -34.9 | 4.2 | -9.0
- C=CCN(C(=O)COC(=O)c1cc[n+]([O-])cc1)c1nc(-c2ccccc2)cs1
 : 16.0 | -2.7 | 7.2 | 2738 | -45.8 | 9.7 | ·
- Cc1cc2ncn(CCCCOc3ccccc3)c2cc1C
 : -1.0 | -0.9 | -1.3 | 17375* | -14.1 | 5.8 | 5.8
